Screening data as filed in PubChem.
YopH PTP inh: YopH tyrosine phosphatase inhibitors, primary screen, biochemical, fluorescence Ex485/Em525; YopH tyrosine phosphatase [Yersinia enterocolitica]; inhibition, %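 (about 10 µM by stock and volumes)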; 140,000 compounds, 0.16% hits;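 active = inhibition of 50% or more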;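 also: controls were vehicle for no effect and minimum signal wells for full effect; inactives centre near -20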
Mtb H37Rv: M. tuberculosis H37Rv growth inhibitors, H37Rv strain (AID 1626) | M. tuberculosis H37Rv growth inhibition; higher % means a stronger effect | inhibition, % at 10 µM; hits with a dose series show IC50 in µM | 220,000 compounds, 0.95% hits;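 active = confirmed in a dose series; inconclusive = inhibition above 80% but not taken into the dose series; inactive = below 80% or under 30% at every dose of the series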;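 also: bacteria incubated seven days before Alamar blue readout; 0% = bacteria only wells and 100% = bacteria with antibiotic wells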
Arbovirus anti: antivirals against arbovirus infection, primary screen, cell-based, full library, 10K replicate subset; arbovirus infection cell-based antiviral screen; inhibition, % at 10 µM; 200,000 compounds, 0.37% hits; AID 1251, 2008;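 active = inhibition from about 30%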;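 also: bluetongue infection of BSR cells; cell survival read as ATP light after 72 h; 0% = infected wells without compound and 100% = uninfected wells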
RecA splice inh: Mtb RecA intein splicing inhibitors, primary screen, biochemical, fluorescence, HTS | Protein RecA (Mycobacterium tuberculosis (strain ATCC 25618 / H37Rv)), P9WHJ3 | cell-free RecA intein splicing | inhibition, %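 (about 9 µM by stock and volumes)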 | 290,000 compounds, 0.75% hits; in the data active = inhibition above about 30%; inconclusive = no clear call, values can overlap the other calls;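 also: 0% = vehicle wells and 100% = reference inhibitor control wells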
Target sequence (P9WHJ3 whole entry, looked up, canonical isoform): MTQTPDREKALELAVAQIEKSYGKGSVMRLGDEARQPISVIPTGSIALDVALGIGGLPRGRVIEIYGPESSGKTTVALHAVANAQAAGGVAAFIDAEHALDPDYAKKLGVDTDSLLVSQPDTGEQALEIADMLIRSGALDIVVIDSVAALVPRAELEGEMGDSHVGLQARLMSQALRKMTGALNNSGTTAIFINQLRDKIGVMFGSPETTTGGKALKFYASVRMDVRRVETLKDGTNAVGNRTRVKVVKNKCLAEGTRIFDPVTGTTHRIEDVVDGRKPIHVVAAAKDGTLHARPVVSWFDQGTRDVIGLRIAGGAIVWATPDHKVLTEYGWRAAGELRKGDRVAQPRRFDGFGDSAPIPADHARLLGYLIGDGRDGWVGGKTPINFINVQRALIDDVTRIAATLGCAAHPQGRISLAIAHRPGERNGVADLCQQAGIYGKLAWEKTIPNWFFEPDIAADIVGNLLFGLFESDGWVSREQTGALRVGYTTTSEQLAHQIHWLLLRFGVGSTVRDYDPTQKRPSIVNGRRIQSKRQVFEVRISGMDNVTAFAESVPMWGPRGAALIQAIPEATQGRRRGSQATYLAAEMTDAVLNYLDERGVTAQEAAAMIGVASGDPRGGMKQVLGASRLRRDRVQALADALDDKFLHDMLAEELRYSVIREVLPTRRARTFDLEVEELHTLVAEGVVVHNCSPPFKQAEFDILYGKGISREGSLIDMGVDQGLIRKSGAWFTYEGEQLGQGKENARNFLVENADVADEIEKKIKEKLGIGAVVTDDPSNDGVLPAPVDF
Mtb betalactam: beta-lactam sensitization of Mtb H37Rv, H37Rv; M. tuberculosis H37Rv growth with meropenem, percent inhibition; hits of this screen are not shown here; inhibition, % at 25 µM; 330,000 compounds, 0.27% hits; AID 434955, 2010;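 active = about 74% or more and at least 40 points above the plate without the antibiotic, then above 30% in a dose series; inconclusive = first-round hits that could not be retested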;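 also: growth measured after seven days incubation then overnight dye step; 0% = bacteria only wells and 100% = bacteria with antibiotic; twin plates without the antibiotic show which effects depend on it; some results filed as inactive read as strong as hits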
Arbovirus anti repeat: further read-out of Arbovirus anti, marked with its call; inhibition, %; measured here: 10K subset replicate screen; many hits read low in the repeat;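 first of two repeat runs on a subset; 0% = infected and 100% = uninfected wells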
Numbers without * were called inactive; ? = inconclusive; · = no result given.

SMILES | YopH PTP inh | Mtb H37Rv | Arbovirus anti | RecA splice inh | Mtb betalactam | others
COc1ccc(-c2nnc(SCC(=O)N(C)C3CCS(=O)(=O)C3)n2N)cc1OC (stereo not given) | · | 0% | 8 | 0.4 | 0
CC1(C)CC(=O)C2=C(C1)N(c1ccccc1C#N)C(N)=C(C#N)C2c1cccs1 (stereo not given) | -20 | 9% | 5 | 6.9 | 32
Cn1c(=O)c2cc(S(=O)(=O)N3CCOCC3)ccc2n(C)c1=O | -22 | -11% | -4 | -5.5 | -8
CCOC(=O)N1CCC(N2CCN(c3cc(C)ccc3C)CC2)CC1 | -21 | 4% | 3 | -0.4 | -13
CCCNc1nc(C)cc(-c2cc(C(=O)NCc3ccccc3)on2)n1 | · | 0% | · | 0.3 | 8
CC(=O)N/N=C/c1cc([N+](=O)[O-])ccc1OCCOc1ccccc1 | -42 | -16% | -5 | 2.3 | 0
Cc1cccc(C)c1OCC(=O)NNC(=S)NC(=O)C1CC1 | · | · | · | 0.9 | 62
Cc1cc(C)nc(NS(=O)(=O)c2ccc(NC(=O)c3ccc(S(=O)(=O)N4CC(C)OC(C)C4)cc3)cc2)n1 (stereo not given) | -27 | -3% | 7 | 2.0 | 0
CCOc1ccccc1C(=O)NCC(=O)OCc1c(C)noc1C | -12 | 4% | -1 | -1.7 | -10
CCOC(=O)c1cc2c(ccn2C)n1CC(=O)N(Cc1ccccc1)c1ccccc1 | -3 | 16% | -28 | 12 | 11
O=C1N/C(=N\N=C\c2cccnc2)SC1Cc1ccc(SC(F)F)cc1 (stereo not given) | -19 | 62% | -37 | 0.6 | 95
Cc1cc(NC(=O)c2ccc3[nH]c(C)c(C)c3c2)ccn1 | · | · | · | -1.3 | -4

The last 2 compounds of the section before lead into the next:
SMILES | YopH PTP inh | Mtb H37Rv | Arbovirus anti | RecA splice inh | Mtb betalactam | others
O=C1N/C(=N\N=C\c2cccnc2)SC1Cc1ccc(SC(F)F)cc1 (stereo not given) | -19 | 62% | -37 | 0.6 | 95
Cc1cc(NC(=O)c2ccc3[nH]c(C)c(C)c3c2)ccn1 | · | · | · | -1.3 | -4
Cc1ccc(OCCn2cnc3cc([N+](=O)[O-])ccc3c2=O)cc1 | · | 5% | 8 | -5.0 | 2
Cc1ccc(SCc2c(C(=O)N/N=C/c3ccc4c(c3)OCO4)nnn2-c2nonc2N)cc1 | · | · | · | -0.6 | 12
COc1ccc(-c2nsc3c(SCc4ccccc4)ncnc23)cc1 | -32 | -9% | -7 | 2.0 | 6
O=C(O)CN1CCN(c2ncc(C(F)(F)F)cc2Cl)CC1 | · | 8% | 2 | 0.5 | 0
COc1ccc(NS(=O)(=O)CC(C)C)c(OC)c1 | -44 | -1% | 3 | 2.9 | -3
COC(=O)c1ccc(OCC(=O)NC(C)(C)C)cc1 | -8 | -2% | -4 | 0.0 | 0
Cc1cc(Cl)ccc1NC(=S)N1CCN(Cc2ccccc2)CC1 | 2 | 2% | 22 | 5.1 | 1
CN(C(=O)COC(=O)c1ccc2c(=O)n3c(nc2c1)CCC3)C1CCS(=O)(=O)C1 (stereo not given) | · | 4% | -1 | -0.9 | -6
Oc1ccc(-c2[nH]ncc2-c2ccc(Cl)cc2)c(O)c1 | 3 | 3% | 0 | 0.7 | 5
O=C(c1ccc(NS(=O)(=O)c2ccc(F)cc2)cc1)N1CCOCC1 | · | · | · | -2.5 | 1
CC(C)c1nc2n[nH]c(N)c2c2c1CCCC2 | -39 | 8% | 6 | 8.9 | 1
CNC(=O)COc1ccc(Cl)c2cccnc12 | · | 7% | -1 | -1.9 | -8
NC(=O)CSc1nnc(-c2ccc3c(c2)OCO3)o1 | · | 2% | -3 | -2.7 | 1
Cc1nc(N)nc(N)c1/C=C/C(C)(C)c1ccc(Cl)cc1 | · | 0.56µM* | -25 | 7.9 | ·
COc1ccc(/C=N/NC(=O)c2ccc(N)cc2)cc1Cn1cc([N+](=O)[O-])cn1 | · | 5% | -13 | -0.7 | -2
N#CCOc1nc(N2CCOCC2)nc(N2CCOCC2)n1 | 5 | -6% | -3 | -3.1 | -19
O=C(CSc1ccc(-c2ccco2)nn1)Nc1ccccc1 | · | -7% | 25 | -3.4 | -1
O=CN1CCN(C(=O)c2cccc3c2-c2ccccc2C3=O)CC1 | · | · | · | 2.0 | -9
CCn1c(=O)c(C(=O)NCc2ccc(F)cc2)c(O)c2ccccc21 | · | · | · | 3.9 | -3
O=C(Nc1ccc(-c2cn3ccccc3n2)cc1)c1ccco1 | -33 | 0% | -18 | -4.5 | 0
O=C(Nc1ccccc1)N1CCN(c2cccc(C(F)(F)F)c2)CC1 | -12 | -1% | -20 | 5.3 | 5
Cc1[nH]nc2ncc(C(=O)c3ccccc3O)cc12 | -42 | 1% | 22 | -2.4 | -8
c1ccc2c(CNn3cnnc3)cccc2c1 | -14 | 5% | 0 | 2.2 | -13
COc1cccc(CC(=O)Nc2ccc(S(=O)(=O)N3CCOCC3)cc2)c1 | · | · | · | -0.7 | -8
CCN(C(=O)c1c(C)cc(=O)oc1C)c1ccc2c(c1)OCO2 | -33 | -5% | 4 | 3.4 | 3
O=C(COc1ccc(Cl)cc1)NCCCn1ccnc1 | -34 | -16% | 5 | 0.3 | -13
c1ccc2c(CCNC3CCCCC3)c[nH]c2c1 | · | 10% | 3 | -0.9 | 1
O=C1c2ccccc2C(=O)N1c1ccc(-c2nc3ccccc3o2)cc1 | -42 | -9% | -8 | · | ·
CCCC(=O)c1c[nH]c(C(=O)NCc2ccco2)c1 | -29 | -9% | 2 | -2.7 | -6
C=C1SC(Nc2c(C)cccc2C)=NC12CCCCC2 | · | 5% | · | 1.5 | 0
CCN1CCN(C(=O)Nc2cccc3ccccc23)CC1 | -17 | 2% | -3 | -0.6 | -4
O=c1[nH]c2ccc(S(=O)(=O)NCc3ccccn3)cc2s1 | -32 | -14% | 7 | -0.4 | -3 | Arbovirus anti repeat=4
Cc1csc(N(C(=O)c2ccc(S(=O)(=O)N(C)C)cc2)c2ccccc2)n1 | -4 | -8% | -3 | 0.2 | -3
Cn1nc(C(=O)OCc2ccc(F)cc2)c2ccccc2c1=O | · | 6% | 20 | 0.5 | 2
O=C(NCc1ccc(F)cc1)C1C2C=CC3(CN(Cc4cccnc4)C(=O)C13)O2 (stereo not given) | 0 | -7% | 5 | -0.6 | 2
CCOc1cc(-c2nc(-c3ccc(C)nc3OCC)no2)cc(OCC)c1OCC | -4 | 6% | -30 | 4.5 | 96

A section from further up, as a working copy:
SMILES | YopH PTP inh | Mtb H37Rv | Arbovirus anti | RecA splice inh | Mtb betalactam | others
CCCC(=O)c1c[nH]c(C(=O)NCc2ccco2)c1 | -29 | -9% | 2 | -2.7 | -6
C=C1SC(Nc2c(C)cccc2C)=NC12CCCCC2 | · | 5% | · | 1.5 | 0
CCN1CCN(C(=O)Nc2cccc3ccccc23)CC1 | -17 | 2% | -3 | -0.6 | -4
O=c1[nH]c2ccc(S(=O)(=O)NCc3ccccn3)cc2s1 | -32 | -14% | 7 | -0.4 | -3 | Arbovirus anti repeat=4
Cc1csc(N(C(=O)c2ccc(S(=O)(=O)N(C)C)cc2)c2ccccc2)n1 | -4 | -8% | -3 | 0.2 | -3
Cn1nc(C(=O)OCc2ccc(F)cc2)c2ccccc2c1=O | · | 6% | 20 | 0.5 | 2
O=C(NCc1ccc(F)cc1)C1C2C=CC3(CN(Cc4cccnc4)C(=O)C13)O2 (stereo not given) | 0 | -7% | 5 | -0.6 | 2

Next structures follow.
SMILES | YopH PTP inh | Mtb H37Rv | Arbovirus anti | RecA splice inh | Mtb betalactam | others
O=S(=O)(Cc1ccccc1)NCC1CCCN(Cc2ccc(F)c(F)c2)C1 (stereo not given) | · | -11% | 1 | 0.0 | -4
Cc1ccc(NC(=S)NNC(=S)NCc2ccccc2)cc1 | 12 | 1% | 1 | -4.0 | -1
COc1cc(S(=O)(=O)NC2CCSc3ccccc32)ccc1NC(C)=O (stereo not given) | · | · | · | 0.3 | 1
N#CC(C(N)=O)=C1CCC2(CC1)OCCCCO2 | -39 | -4% | -7 | -0.6 | -8
Cc1cc(OC(C)C(=O)NCc2cccnc2)c2c(C)cc(=O)oc2c1 (stereo not given) | · | · | · | -1.1 | -5
O=C(O)CCCN=C1CCCc2ccccc2N1 | -5 | -3% | 0 | 1.1 | -15
COc1cccc(/C=N/n2c(=S)n(C)c3cc(C)c(C)cc32)c1OC | -20 | -2% | -1 | -1.4 | 5
NC(=O)/C(=C/c1ccco1)C(N)=S | · | -9% | · | · | -11
Cc1ccc(OCC(=O)c2cc(C)n(-c3ccccc3)c2C)c([N+](=O)[O-])n1 | -12 | 2% | -2 | 1.1 | 9
Cc1cc(Nc2cccc(F)c2)nc(-c2ccccc2O)n1 | -44 | 16% | 11 | -0.1 | 4
O=C(NCCc1ccco1)C(=O)NCC1OCCCN1S(=O)(=O)c1ccc(F)cc1 (stereo not given) | · | · | · | 3.1 | -13
CCC(=O)Nc1ccc(NC(=O)Cc2ccccc2)cn1 | -99 | 2% | 1 | 3.4 | -14
CCCCCOc1ccc(C(=O)NC(CCC)C(=O)O)cc1 (stereo not given) | -24 | -2% | -6 | 5.4 | -7
CCOC(=O)c1sc(NC(=O)CS(=O)(=O)c2ccc(C)cc2)nc1C | · | · | · | 1.5 | 6
Cc1c(Cl)c(=O)oc2cc(OCC(=O)NCc3cccs3)ccc12 | -39 | -4% | 5 | · | -9
Cc1ccc(C(=O)N2CCN(c3ccc(NC(=S)NC(=O)c4cccs4)cc3)CC2)cc1 | · | ? | -3 | -1.9 | 86
NC(=O)c1nsc(C(=O)N(CC(=O)NCc2ccc(F)cc2)Cc2ccco2)c1N | 0 | -3% | 3 | -0.4 | 4
O=C1Nc2ccccc2/C1=C/c1cnc(-c2ccccc2)[nH]1 | · | -1% | · | -1.8 | -8
O=C(NCc1ccco1)C(c1ccccc1)N(C(=O)Cc1cccs1)c1cccnc1 (stereo not given) | · | 3% | 1 | 2.3 | 4
O=c1c2cccnc2[nH]c(=S)n1CCCN1CCN(c2ccccc2F)CC1 | -4 | · | 0 | 2.3 | 1
FC(F)(F)COc1ccc(-n2ccnc2)nn1 | · | 6% | -1 | 0.6 | -2
CCc1ccc(CCC(=O)Nc2nnc(C)s2)o1 | 7 | 5% | 11 | 0.2 | -6
COc1cccc(C(=O)Nc2nnc(S(=O)(=O)N(C)Cc3ccccc3)s2)c1 | · | · | · | -0.8 | 11
COC(=O)c1ccc(NC(=O)CSC2=NC(=O)C(c3ccccc3)C(=O)N2)cc1 (stereo not given) | -23 | 39% | 4 | 0.0 | 99
O=C(COc1ccc([N+](=O)[O-])cc1)Nc1cc(C(=O)O)cc(C(=O)O)c1 | · | -1% | 11 | 3.4 | 1
Cc1c(Cl)cccc1NC(=O)Nc1ccc(C(N)=O)cc1 | · | -7% | 4 | -0.6 | -5
Cc1nn(CC(=O)N2CCN(C)CC2)c(=O)c2ccccc12 | · | 6% | 5 | -2.5 | 3
CCC(=O)Oc1oc(-c2ccccc2)nc1C=Nc1ccc(C)cc1 | · | 7% | · | · | 87
Cn1cc(Cl)c(C(=O)NC(=S)Nc2sc3c(c2C#N)CCCCC3)n1 | -17 | 0% | 4 | 0.1 | 18
Cc1ccsc1/C=C1\SC(N2CC(C)OC(C)C2)=NC1=O (stereo not given) | -18 | 66% | -10 | 0.5 | 80
Cc1cc(-c2cccs2)nc(-n2cccc2)n1 | -29 | -2% | 10 | 5.9 | -4

An excerpt; the hit share may differ from the screen's.
